# High-throughput results: PubChem BioAssay, ICCB-Longwood Screening Facility, Harvard Medical School
# UCH37 DUB inh = inhibitors of human UCH37 deubiquitinase, primary screen, biochemical, Ub-AMC cleavage, fluorescence; Ubiquitin carboxyl-terminal hydrolase isozyme L5 (Homo sapiens), Q9Y5K5; purified proteasome/UCH37; inhibition, % (test concentration not listed); 330,000 tested, 0.33% active; AID 588478, 2011;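 active means mean of two replicates above 20%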;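 further: 0% = compound-free wells with enzyme and 100% = wells lacking proteasome; stock transfer was 100 nL into about 20 µL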
# Target sequence (Q9Y5K5 whole entry, looked up): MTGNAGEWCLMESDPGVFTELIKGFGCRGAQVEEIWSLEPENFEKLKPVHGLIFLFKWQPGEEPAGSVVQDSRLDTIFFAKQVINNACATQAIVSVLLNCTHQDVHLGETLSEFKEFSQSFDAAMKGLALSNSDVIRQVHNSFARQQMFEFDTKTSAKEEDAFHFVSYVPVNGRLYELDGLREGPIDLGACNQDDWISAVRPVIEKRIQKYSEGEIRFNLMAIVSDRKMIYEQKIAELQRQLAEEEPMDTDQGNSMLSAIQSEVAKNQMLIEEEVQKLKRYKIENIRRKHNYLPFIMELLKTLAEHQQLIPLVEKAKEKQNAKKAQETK
#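 system = Proteasome-associated human UCH37 deubiquitinase | amount = 0.15 nM proteasome as dispensed | medium = pH 7.4 Tris-HCl (50 mM) with ovalbumin, ATP-MgCl2, DTT | incubation = 30 min preincubation with enzyme, 25 min cleavage at room temperature | detection = AMC fluorescence 355/460 nm | read-out basis = percent inhibition | controls = no-proteasome and no-compound wells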
# Ecoli growth = E. coli growth inhibition, primary screen, OD600; Escherichia coli growth, 23 h; active compounds read low; OD600 absorbance (test concentration not listed); 330,000 tested, 0.21% active; AID 1053175, 2014;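 active means OD600 absorbance below the run mean of sample wells minus 3.6 SD, in any replicate, cut at about 0.56 in these data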;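 further: stock transfer was 300 nL into about 60 µL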
# Active calls of the source: *; & = joins results of further samples. Not all compounds are listed. The share of hits here may be higher or lower than overall.
# Each structure is followed by: UCH37 DUB inh | Ecoli growth
O=S(=O)(NN=Cc1ccccc1OCc1ccc(Cl)cc1)c1ccccc1
    3.3 | 0.645
CCN(CC)c1ccc(C=NN2CCN(c3ccccn3)CC2)cc1
    6.2 | 0.698
COc1ccccc1CNC(=O)CC(C)=NNC(=O)Cc1ccccc1
    0.4 | 0.689
CC(=NNC(=O)c1ccc(Cl)c(Cl)c1)c1ccc(Br)s1
    -33.0 | 0.699
Cc1cccc(C=NNC(=O)c2cccc([N+](=O)[O-])c2)n1
    5.5 | 0.702
CS/C(N)=N/N=Cc1ccc([N+](=O)[O-])cc1
    11.1 | 0.644
COC(=O)C=c1sc2n(c1=O)C(C)=CC(C)(C)N=2
    2.0 | 0.656
CCn1c(C)nc2cc(C(=O)NN=C(C)c3ccccc3O)ccc21
    -2.5 | 0.643
Nc1nonc1-n1nnc(C(=O)NN=Cc2ccccc2F)c1-c1cccs1
    1.9 | 0.688
Cc1ccsc1C=NNC(=O)c1cc(-c2ccncc2)nc2ccccc12
    5.9 | 0.695
CCN1C(=O)CSC1=NS(=O)(=O)c1ccc(Cl)cc1
    -0.2 | 0.712
CC(=O)c1cccc(NC(=O)CC2S/C(=N/N=Cc3cccs3)NC2=O)c1 (centres undefined)
    3.2 | 0.747
O=C(CC=NOCc1ccc(Cl)cc1Cl)c1ccc(Cl)cc1
    0.5 | 0.665
O=C(NN=Cc1c[nH]c2ccccc12)c1ccn[nH]1
    5.5 | 0.66
Cc1nn(Cc2c(Cl)cccc2Cl)c(Cl)c1C=NNC(=O)c1cccnc1
    1.3 | 0.69
CC1(C(=O)NN=Cc2ccccc2)CC1(Br)Br (centres undefined)
    2.9 | 0.724
COc1cccc2cc(C(=NO)c3ccccc3)oc12
    4.6 | 0.662
CCN(CC)c1ccc(C=NO)cc1
    1.9 | 0.627
O=C(NN=Cc1cccs1)c1cccc(S(=O)(=O)Nc2ccc(Cl)cc2)c1
    3.1 | 0.737
Cc1ccc(-c2nnc(SCC(=O)NN=Cc3c(C)nn(-c4ccccc4)c3C)n2-c2ccc(C)cc2)cc1
    3.6 | 0.682
O=C(NN=Cc1coc2ccccc2c1=O)c1ccccc1
    -45.1 | 0.629
CC(CCC12CC3CC(CC(C3)C1)C2)=NNC(N)=S
    3.7 | 0.668
CCCCNC(=O)N(O)C1N(N=Cc2ccc(N(C)C)cc2)C(=S)SC1(C)C (centres undefined)
    1.2 | 0.694
CC(=NNc1cc(C)nc(NCc2ccccc2)n1)c1cccc([N+](=O)[O-])c1
    8.5 | 0.682
CC(=NNC(=O)Cc1ccccc1)c1ccc(Br)s1
    -0.4 | 0.685
O=S(=O)(NN=Cc1ccc(N2CCOCC2)cc1)c1ccccc1
    4.2 | 0.657
O=C1CSC(=S)N1N=Cc1c(F)cccc1F
    5.6 | 0.704
O=C(CNC(=O)c1ccccc1Br)NN=Cc1cccnc1
    -1.3 | 0.625
C/C(C=NNC(=O)c1sc(N)nc1C)=C\c1ccccc1
    -21.4 | 0.698
CC(C)CNC(=O)CC(=O)NN=Cc1ccc(Br)cc1
    2.7 | 0.676
CC(=NNc1cc(N2CCOCC2)ncn1)c1ccc(O)cc1
    3.7 | 0.637
O=C(O)c1cc2c(o1)CCCC2=NO
    4.8 | 0.711
Cc1cccc(N2C(=O)CSC2=NNC(=O)c2cccnc2)c1C
    -1.1 | 0.645
COc1cc(C=NNC(=O)CCC(=O)Nc2ccc(Br)cc2)ccc1O
    1.1 | 0.685
CCCCc1cc2c(s1)CCCCC2=NO
    3.3 | 0.697
CC(=NNC(=O)Cc1ccc(Cl)c(Cl)c1)c1cccnc1
    1.7 | 0.683
O=C(NN=Cc1ccc(O)cc1)Nc1cccc2nsnc12
    -7.0 | 0.658
COc1cc(C=NNC(=O)c2ccncc2)cc(OC)c1OC
    5.2 | 0.638
COc1ccc(C=NNc2nc(C)nc(N)n2)cc1
    9.4 | 0.67
ON=Cc1cc(Br)ccc1OCc1ccccc1F
    1.9 | 0.725
COc1ccc(C=NNC(=O)c2ccc(N(C)S(=O)(=O)c3ccccc3)cc2)cc1
    4.7 | 0.726
CC(C)c1cc(C(=O)NN=Cc2cccnc2)n[nH]1
    2.2 | 0.681
Cc1ccccc1OCC(=O)NN=Cc1ccc(Sc2nc3ccccc3s2)o1
    0.1 | 0.739
CCCCCCCCCCCC(=O)NN=Cc1ccco1
    4.1 | 0.696
CC(=NNC(=O)CNc1ccc(C)cc1)c1ccc(Cl)cc1
    1.1 | 0.702
CC(CC(O)(C=NO)c1ccccc1)=NO (centres undefined)
    4.0 | 0.666
CCCCCCCC(=O)NN=Cc1ccc(Br)cc1
    1.7 | 0.721
COc1ccccc1C=NNC(=O)c1ccc(C)nc1
    3.1 | 0.685
Cc1ccc(OCC(=O)NN=Cc2cccnc2)cc1
    3.4 | 0.675
CNC(=S)NN=C(C)c1ccc(C)c(C)c1
    4.4 | 0.718
CCCN(CCC)Cc1c(C(=O)NN=Cc2cccs2)nnn1-c1nonc1N
    3.0 | 0.675
ON=CCCn1c(=S)sc2ccccc21
    1.9 | 0.64
O=C(NN=Cc1ccc(OCCCF)cc1)c1cc(OCC(F)(F)F)ccc1OCC(F)(F)F
    2.0 | 0.768
COc1cccc(C=Nn2c(C3CCCCC3)n[nH]c2=S)c1
    3.7 | 0.681
Cc1cc(C=NNC(N)=S)c(O)c(C=NNC(N)=S)c1
    5.8 | 0.699
Cc1cc(SCC(=O)NN=Cc2ccc(O)c(O)c2)nc2ccccc12
    3.0 | 0.726
CCN(CC)C(=O)[C@H]1C[C@H](CC(=O)NC/C=C(\C)CCC=C(C)C)C(=O)N2CCc3c([nH]c4cc(CCC(=O)N(C)C)ccc34)[C@]12C
    0.5 | 0.692
C=CCc1c(C)nc(-c2ccccc2)nc1NN=Cc1ccccc1
    2.7 | 0.701
CCN(CC(=O)Nc1cccc(Br)c1)Cc1nc2ccccc2c(=O)[nH]1
    -4.0 | 0.758
COc1cc(C=Nn2c(C3CCCCC3)n[nH]c2=S)cc(OC)c1O
    -1.4 | 0.696

# Following part
# Each structure is followed by: UCH37 DUB inh | Ecoli growth
CCCCCCCC(=O)NN=C(C)c1ccc(N)cc1
    2.0 | 0.692
COc1cc(C=NN=C(C(=O)c2ccccc2)c2ccccc2)cc(OC)c1O
    5.1 | 0.679
CCc1ccc(C=NNC(=S)NCCc2ccccc2)cc1
    1.9 | 0.717
CSc1nc(C=C2C=Nc3ccccc32)c(O)n1C
    7.8 | 0.674
COc1cc(C=NN=C2SCC(=O)N2c2ccc(O)cc2)ccc1O
    4.0 | 0.749
Cc1ccc(S(=O)(=O)Oc2cccc(C=Nn3cnnc3)c2)cc1
    0.2 | 0.667
Cc1ccc(C=NNC(=O)c2ccc(OC3CCCC3)cc2)o1
    3.1 | 0.723
CC(=NNC(=O)Cc1ccc([N+](=O)[O-])cc1)c1cccnc1
    -0.9 | 0.679
O=[N+]([O-])c1cc(C=NO)ccc1SCc1ccccc1Cl
    3.9 | 0.715
Cc1ccccc1NCC(=O)NN=Cc1ccc([N+](=O)[O-])cc1
    5.2 | 0.672
Cn1cccc1CC(=O)NN=Cc1ccc(Cl)cc1
    7.4 | 0.656
CC(=NNC(=S)NC1CCCCC1)c1ccccc1
    -0.5 | 0.739
COc1ccc(C=NNC(=O)c2c(C)nnn2-c2nonc2N)cc1OC
    -22.8 | 0.661
COc1ccccc1N1CCN(N=Cc2cc(OC)c(O)c(OC)c2)CC1
    0.6 | 0.679
COc1ccc(NC(=O)C(=O)NN=Cc2cccnc2)c(OC)c1
    5.7 | 0.667
Cn1ncc(Cl)c1C(=O)NN=Cc1cccc(OC2CSC2)c1
    4.8 | 0.729
O=C(Cc1ccccc1)NCC(=O)NN=Cc1ccc(C(=O)O)cc1
    4.6 | 0.694
CCC(=NNC(=O)c1csc(C)c1C)c1cccs1
    6.0 | 0.743
O=C(O)CC1S/C(=N/N=Cc2ccccn2)NC1=O (centres undefined)
    12.0 | 0.638
Cc1ccc(S(=O)(=O)N(C)Cc2ccc(C(=O)NN=C3CCCC(=O)C3)cc2)cc1
    3.4 | 0.671
COc1cc(C=NN=C(N)N)ccc1OCc1ccc(Cl)cc1
    3.1 | 0.509*
COc1cc(C=NNC(=O)c2ccncc2)ccc1OC(=O)c1cccc(Br)c1
    2.0 | 0.605
O=C(Cc1ccccc1)NN=Cc1cc2c(cc1Cl)OCO2
    -8.1 | 0.674
O=C(NCCc1ccccc1)C(=O)NN=Cc1ccc2c(c1)OCO2
    1.4 | 0.72
Cc1ccc(C(=O)ON=C(N)c2nonc2N)cc1
    2.7 | 0.66
CC(=NNC(=O)c1ccccc1)c1ccc(N2CCCCC2)cc1
    -50.9 | 0.605
COCCNC(=S)NN=C(C)c1ccccc1OC
    1.4 | 0.679
O=C(NN=Cc1ccccc1Cl)c1nc2ccc([N+](=O)[O-])cc2c(=O)[nH]1
    12.6 | 0.668
Cc1n[nH]c(=S)n(N=Cc2ccccn2)c1=O
    2.0 | 0.659
Cc1cnn(-c2cc(NN=Cc3ccccc3)ncn2)c1
    2.2 | 0.785
Cc1ccc(S(=O)(=O)N(C)Cc2ccc(C(=O)NN=Cc3ccc(OC(F)F)cc3)cc2)cc1
    2.6 | 0.726
CC(=NO)c1ccc2c(c1)OCCOCCOc1cc(C(C)=NO)ccc1OCCOCCO2
    2.2 | 0.728
C=CCc1cccc(C=NNC(=O)CNc2ccccc2)c1O
    -4.7 | 0.775
Cc1ccc(C(COc2ccccc2O)=NO)cc1
    4.6 | 0.645
O=C(CN1CCOCC1)NN=Cc1ccco1
    3.9 | 0.689
CCOc1ccc(NC(=O)CCC(=O)NN=C(C)c2cccs2)cc1
    3.2 | 0.722
CSc1ccc(C=NN2CCN(C)CC2)cc1
    1.5 | 0.705
O=C(CNC(=O)c1cccc(Br)c1)NN=Cc1ccc2c(c1)OCO2
    2.4 | 0.67
CC(=NNS(=O)(=O)c1ccc(Cl)cc1)c1cccc(NC(=O)c2ccc(Cl)cc2Cl)c1
    0.8 | 0.779
Cc1ccc(SCc2c(C(=O)NN=Cc3ccc4c(c3)OCO4)nnn2-c2nonc2N)cc1
    -30.3 | 0.684
CCOc1cc(C=NNC(=O)c2cccs2)cc([N+](=O)[O-])c1O
    29.7* | 0.639
O=C(CN1CCN(Cc2ccc(Cl)cc2)CC1)NN=Cc1c[nH]c2ccccc12
    7.7 | 0.676
CCn1c(N=Cc2c[nH]c3ccccc23)nc2ccccc21
    3.5 | 0.705
CC(CCC1CC(C)(C)OC1=O)=NNC(N)=S (centres undefined)
    5.8 | 0.699
CC(=O)NN=Cc1ccccc1OC/C=C/c1ccccc1
    2.2 | 0.673
ON=C1CCSc2ccc(F)cc21
    -0.7 | 0.649
CC(=NNc1c(F)c(F)c(Br)c(F)c1F)c1ccncc1
    7.0 | 0.611
Cc1oc(N=Cc2ccc(O)cc2O)c(C#N)c1C
    4.2 | 0.689
O=C(NN=Cc1cccnc1)c1ccc(Cl)cc1Cl
    3.0 | 0.66
O=C(CCn1cnc(-c2ccccc2)c1-c1ccccc1)NN=Cc1ccccc1O
    -7.1 | 0.706
CCC(=O)N(C)CCc1cc2c(c(OC)c1C=NNS(=O)(=O)c1ccc(C)cc1)OCO2
    3.1 | 0.663
COc1cccc(C(=O)NCC(=O)NN=Cc2cccs2)c1
    5.5 | 0.679
CC(=NNC(=O)c1cccc2ccccc12)c1cccs1
    5.9 | 0.699
Cc1cccc(OCC(=O)NN=C/C=C/c2ccco2)c1
    8.4 | 0.647
O=C(Cc1cc(=O)[nH][nH]1)NN=C/C(Cl)=C/c1ccccc1
    8.0&3.6 | 0.809&0.728
CC1CCN(Cc2c(C(=O)NN=Cc3ccc(C(C)(C)C)cc3)nnn2-c2nonc2N)CC1
    2.3 | 0.749
COc1ccc(C(=O)NN=Cc2ccc(OC)c(CSc3ccccn3)c2)cc1
    4.9 | 0.709
Cc1nc(N)sc1C(=O)NN=Cc1ccccc1[N+](=O)[O-]
    2.8 | 0.689
COc1ccc(OCC(=O)NN=C2C=C(C)CC2)cc1
    -1.6 | 0.709
O=[N+]([O-])c1ccccc1OCC(=NO)c1ccccc1
    7.4 | 0.69

# (continued)
# Each structure is followed by: UCH37 DUB inh | Ecoli growth
CCOC(=O)c1csc(NN=C2CCCc3ccccc32)n1
    1.3 | 0.661
COc1ccc(C=NNC(=O)c2ccc(COc3ccccc3Cl)o2)c(OC)c1C
    -4.5 | 0.681
Cc1cccc(C=Nc2sc3c(c2C#N)CCN(Cc2ccccc2)C3)c1O
    2.2 | 0.699
CCCCCCCC(C)=NNC(=O)CC(=O)NCCc1ccccc1
    -1.5 | 0.684
CC(CCc1ccccc1)=NNC(=O)C1C2CCCCC21 (centres undefined)
    -1.5 | 0.705
CSc1nncn1N=Cc1cc(Cl)ccc1F
    0.3 | 0.659
CC1(C)CC(=O)CC(=O)C1=NNc1c(Cl)cc(Cl)cc1Cl
    6.6 | 0.724
NC(=NOC(=O)CCCC(=O)O)c1ncc(C(F)(F)F)cc1Cl
    0.1 | 0.699
CC(=NNC(=O)c1cccnc1)c1ccc(C)c([N+](=O)[O-])c1
    6.0 | 0.66
O=C(NN=Cc1cccs1)c1ccc2ncccc2c1
    -2.2 | 0.661

# Full records from above:
# `O=C(NN=Cc1cccs1)c1ccc2ncccc2c1` across the screens: UCH37 DUB inh = -2.2; Ecoli growth = 0.661
# `Cc1cccc(C=Nc2sc3c(c2C#N)CCN(Cc2ccccc2)C3)c1O` across the screens: UCH37 DUB inh = 2.2; Ecoli growth = 0.699
